D2 PAM: potentiates the human D2 dopamine receptor allosterically | 360,000 tested, 0.23% active | DiscoveRx D2 beta-arrestin cells, luminescence, 90 min; 100% = 57 uM dopamine signal | potentiation, % (no concentration beside the values) | AID 624464 | P14416; active = potentiation of 50% or more; inconclusive = 30% to 50%; inactive = 30% or less;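 further: compound concentration not given in the record; tested on top of an EC20 dose of dopamine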
Target sequence (P14416 whole entry, looked up): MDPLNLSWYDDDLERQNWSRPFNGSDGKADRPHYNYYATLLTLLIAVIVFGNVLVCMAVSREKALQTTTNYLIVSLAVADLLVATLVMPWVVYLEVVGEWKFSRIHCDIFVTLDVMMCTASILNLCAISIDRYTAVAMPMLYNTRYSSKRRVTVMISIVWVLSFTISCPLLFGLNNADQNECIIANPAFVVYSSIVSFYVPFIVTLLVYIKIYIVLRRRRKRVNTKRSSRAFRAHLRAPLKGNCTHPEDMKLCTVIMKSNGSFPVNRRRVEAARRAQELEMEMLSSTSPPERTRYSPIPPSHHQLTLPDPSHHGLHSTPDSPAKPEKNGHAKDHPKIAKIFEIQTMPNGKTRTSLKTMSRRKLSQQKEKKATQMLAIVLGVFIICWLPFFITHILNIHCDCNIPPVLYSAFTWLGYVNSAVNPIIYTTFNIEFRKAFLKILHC
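PathHunter beta-arrestin assay in DiscoveRx D2 cells. Compounds were added with an EC20 of dopamine (50 nM final) for 90 min at 37 deg C. Luminescence was read 1 h after detection reagent, with 57 uM dopamine as the EC100 control.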
Six1-Eya2 blk: inhibitors of human Six1/Eya2 interaction. 360,000 tested, 0.56% active. activity change, % (concentration not given with the values). AlphaScreen GST-Six1/His-Eya2 binding, biochemical; active compounds read low; control for the full effect not named in the record. Q15475+O00167. AID 651725; in the data active = activity change below about -65%; inconclusive = about -30% to -65%; inactive = above about -30%; further: on the % scale 0 is the no-effect control and ±100 the full control effect
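Homogeneous AlphaScreen proximity assay pairing GST-Six1 with His-tagged Eya2 (added as 5X mix: 250 nM and 500 nM) in 50 mM Tris pH 8.0, 300 mM NaCl, 1 mM TCEP. Glutathione donor and nickel acceptor beads; 1 h, 37 °C, dark.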
Sfp PPTase inh: Sfp phosphopantetheinyl transferase inhibition. 310,000 tested, 3.5% active. Biochemical Sfp PPTase activity, qHTS. Potency, µM, inactives show max response, negative = inhibition, actives largely listed as inhibitors; active means well fitted inhibition curve with a large enough effect; inconclusive means small, poorly fitted or top-dose-only effect, or another doubt; inactive means no such curve, though single readings can be large or run the other way;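 further: the enzyme is Sfp with the accession as filed and its product quenches rhodamine fluorescence; potency means the concentration at half of the fitted maximal effect; 0% = enzyme reaction without inhibitor and -100% = no enzyme wells; top concentration of the series not given in the record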
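Fluorescence-quenching assay with 15 nM Sfp, 5 uM rhodamine-CoA and 12.5 uM BHQ-2-labelled ybbR peptide in pH 7.6 Hepes/MgCl2 buffer. Enzyme was pre-incubated with compound for 15 min at room temperature. Rate was taken from the 30-min fluorescence change (525/598 nm).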
TRPV1 PAM: human TRPV1 potentiation; TRPV1-expressing cells, Fluo-8 calcium influx, capsaicin EC20 potentiation; host cell line not named in the record; control for the full effect not named in the record; potentiation, % at 8.33 µM; 320,000 tested, 0.02% active; active means potentiation above 80%; inconclusive means 30% to 80%; inactive means below 30%; further: 0% is about no effect
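TRPV1-expressing cells were cultured overnight at 35.5C and loaded with Fluo-8 calcium dye for 40 to 90 min at room temperature. After a 10 s baseline, compound was added and calcium influx was read kinetically for 3 min (ex 480/em 520 nm).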
PINK1 expr mod: changes PINK1 expression; PINK1 immunofluorescence, high-content cytometry, 24 h; 410,000 tested, 0.2% active; Potency, µM (top dose mostly 76.6 µM), for the others: at the top dose activation (PINK1 increase), actives largely listed as activators; active = well fitted activation curve with a large enough effect; inconclusive = small, poorly fitted or top-dose-only effect; inactive = flat fitted curve, though single readings scatter; cell line not stated here;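 further: potency means the concentration at half of the fitted maximal effect; % of control where 0% means no effect; nearly all actives have a fitted effect of over 65% in size; a mitochondrial uncoupler was the plate control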
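Compound titrations (5 concentrations, 24 h) on a stable cell line; DMSO and CCCP controls. Endpoint: fixed-cell PINK1 immunofluorescence with mitochondrial, cell and nuclear markers, scanned by microplate cytometer.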
D2 agonist: human D2 receptor agonism in beta-arrestin assay; P14416; DiscoveRx PathHunter D2 beta-arrestin, luminescence, 90 min; 100% = 57 uM dopamine signal; activation, % (test concentration not listed); 360,000 tested, 0.084% active; in the data active = activation above about 40%; inconclusive = about 15% to 40%; inactive = below about 15%; further: compound concentration not given in the record; the text of the record calls up to 30% inactive
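DiscoveRx PathHunter D2 beta-arrestin cells (2,100/well) attached overnight, then compound-stimulated 90 min at 37 C in HBSS/10 mM HEPES/0.1% Tween-20 buffer; beta-galactosidase complementation read by luminescence after 1 h at ambient temperature. Dopamine 57 uM final (EC100) as control.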
CtBP-E1A blk: blocks the CtBP interaction with E1A | AlphaScreen GST-E1A/His-CtBP binding, 1536-well; active compounds read low; control for the full effect not named in the record | activity change, % (concentration not given with the values) | 340,000 tested, 0.49% active | AID 651724; in the data active means activity change below about -65%; inconclusive means about -30% to -65%; inactive means above about -30%; further: on the % scale 0 is the no-effect control and ±100 the full control effect
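Homogeneous bead-based format: GST-tagged E1A captured on glutathione donor beads, His-tagged CtBP on nickel acceptor beads; compounds precede bead addition by 2 h at 37 °C.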
Starred values were filed as active, the others as inactive; ? = inconclusive; . = no result given; & = joins results of further samples; [ ] = dose if it differs, or a comment.

Molecule	D2 PAM	Six1-Eya2 blk	Sfp PPTase inh	TRPV1 PAM	PINK1 expr mod	D2 agonist	CtBP-E1A blk
O=C(COC(=O)c1ccccn1)Nc1c(Cl)cccc1Cl	-2	-8	6%	3	0.2%	-2.4	-9
COc1ccccc1CC1S/C(=N/N=C/c2ccco2)NC1=O (stereo not given)	4	-12	19%	9	-2.9%	7.3	-5
CC(=O)N1CCN(S(=O)(=O)c2cccc(C(=O)N(Cc3ccccc3)c3ccc(C)cc3)c2)CC1	-28	-3	.	?	-0.7%	-6.1	1
CCOC(=O)c1c(C)[nH]c(C)c1C(=O)Cn1nnc(-c2ccccc2C)n1	5	-19	34%[activator]	-4	0.7%	0.5	-24
CC(C)n1nc(C(=O)Oc2ccc(Cl)cc2)c2ccccc2c1=O	-15	2	?	-25	5.5%	-11	-2
COc1nnc(-c2ccc(C)cc2)c2ccccc12	-9	-6	12%	1	0.8%	-2.5	-3
Cc1nnc(SCC(=O)N2CCN(S(=O)(=O)c3ccc(Cl)cc3)CC2)n(N)c1=O	3	0	1%	19	0.1%	-2.3	4
COc1ccc(-n2nc(C(=O)NCC(=O)N3CCCCC3)c3ccccc3c2=O)c(OC)c1	-4	-2	16%	13	1.8%	2.4	-15
CC(=O)NCCc1ccc(S(=O)(=O)N2CCCC2)cc1	-23	-1	0%	-13	3.0%	-5.2	-1
COC(=O)C1=NN(C(C)=O)C2(CC(=O)N(c3cc(C)cc(C)c3)C2=O)C1 (stereo not given)	-8	3	20%	-1	1.8%	-5.7	3
COc1cc(COCC(O)CN2CCN(CCN3C(=O)c4cccc5cccc(c45)C3=O)CC2)cc(OC)c1OC (stereo not given)	-21	3	-11%	-5	-0.6%	-2.6	-1
O=C1C2C3CCCC3=C3CCCC3C2C(=O)N1c1ccc(Cl)cc1 (stereo not given)	-1	-5	-11%	25	5.0%&-0.6%	-3.7	7
CCN(C(=O)CCc1nnc2ccc(NCc3ccco3)nn12)c1ccccc1	-8	-4	7%	8	-0.1%	-0.8	-2
O=C(CSCC(=O)N1CCCCC1)Nc1nc(-c2ccccc2)c(-c2ccccc2)s1	-6	-18	15%	22	5.7%	-3.8	-18
O=C(COC(=O)C12CC3CC(CC(Cl)(C3)C1)C2)Nc1ccccc1	0	3	.	.	4.6%	0.7	11
S=C(NCCc1ccccn1)Nc1ccc(Cl)cc1Cl	-9	0	-6%	5	-0.5%	-1.4	-1
CSCCC(NC(=O)c1ccccc1)C(=O)NNC(=O)c1csc(N2CCOCC2)n1 (stereo not given)	-17	5	9%	3	-1.0%	-4.5	-5
Cc1ccc(N2CCN(S(=O)(=O)N3CCOCC3)CC2)cc1C	-3	-2	-2%	-14	-0.8%	-3.3	-8
CCCC(C(=O)NC1CCCC1)N(C(=O)Cn1nnc(-c2ccc(C)o2)n1)c1cccc(O)c1 (stereo not given)	7	-24	-2%	20	0.4%	-0.5	-7
Nc1nc(SCCOc2ccccc2)n[nH]1	-25	5	9%	-15	1.3%	0.1	3
CC(C)C(=O)NC(c1cccs1)c1cc([N+](=O)[O-])c2cccnc2c1O (stereo not given)	-16	-97*	?	-3	-2.6%	0.1	-91*
Cc1ccc(/C=N/Nc2nc(N3CCOCC3)nc(N3CCOCC3)n2)o1	-9	4	-19%	-11	-1.0%	-3.9	-1
Cc1cn([C@H]2C[C@H](O)[C@@H](CNCc3ccc(C#CCCO)cc3)O2)c(=O)[nH]c1=O	.	-1	.	.	0.5%	0.1	6
O=C(CSc1nnc(CNC(=O)c2c(F)cccc2F)o1)Nc1ccc2c(c1)OCCO2	9	-2	1%	5	0.1%	-0.6	-6
CC1(C)Cc2c(sc(NC(=O)c3ccc4ncsc4c3)c2C(N)=O)C(C)(C)N1	-3	-4	18%	-6	-0.3%	0.6	-8
COc1ccc(NC(=O)CSc2nc(=O)n(CCN3CCOCC3)c3c2CCC3)c(OC)c1	-14	-9	.	-3	-0.2%	-2.2	2
COc1ccc(S(=O)(=O)NC2CCCCCC2)cc1C(N)=O	1	-12	8%	6	-1.0%	2.4	-21
COCC(C)n1c(C)cc(C(=O)Cn2c(=O)oc3ccccc32)c1C (stereo not given)	-7	-5	12%	-3	2.4%	-0.1	-1
COc1ccccc1N1CCN(C2CCCCC2NS(=O)(=O)c2ccccc2)CC1 (stereo not given)	-41	-11	-9%	4	2.0%	-5.6	-13
CN(C)c1ccc2c(c1[N+](=O)[O-])Cc1ccccc1-2	-15	?	.	.	0.6%	-0.2	9

Only TRPV1 PAM and Six1-Eya2 blk, for some of the entries so far:
molecule,TRPV1 PAM,Six1-Eya2 blk
CC1(C)Cc2c(sc(NC(=O)c3ccc4ncsc4c3)c2C(N)=O)C(C)(C)N1,-6,-4
COc1ccccc1N1CCN(C2CCCCC2NS(=O)(=O)c2ccccc2)CC1 (stereo not given),4,-11

New compounds follow.
Molecule	D2 PAM	Six1-Eya2 blk	Sfp PPTase inh	TRPV1 PAM	PINK1 expr mod	D2 agonist	CtBP-E1A blk
COc1cccc(C2NC(=O)NC(C)=C2C(=O)OCC2CCCO2)c1 (stereo not given)	-4	3	15%	0	0.5%	0.8	0
O=C(c1ccc2ncsc2c1)N1CCN(c2cccc(C(F)(F)F)c2)CC1	12	-7	.	6	1.4%	-0.5	-2
CC1(C)Cc2c(cnn2-c2ccc(F)cc2)C(NC(=O)CCc2ccncc2)C1 (stereo not given)	-5	1	8%	-21	-0.8%	3.6	2
CN(C(=O)c1cccc(NC(=O)C2CCCN(C(=O)OC(C)(C)C)C2)c1)C1CCCC1 (stereo not given)	-4	0	.	.	0.2%	-2.5	5
CCOc1ccc(NC(=S)N2CCC(c3nc4ccccc4[nH]3)CC2)cc1	-4	0	12%	-6	6.7%	3.2	4
Cn1c(=O)n(C)c2cc(NS(=O)(=O)c3ccccc3)ccc21	16	2	13%	1	1.2%	1.0	0
N#CCC(=O)NN=C1CCCCCCCCCCC1	-6	2	-10%	1	3.4%[38.3 µM]	-3.2	7
O=C(NN=C1c2ccccc2-c2ccccc21)c1ccccc1Br	-12	-7	?	9	-0.2%[38.3 µM]	-2.8	-5
CC(C)C[C@H](NC(=O)C1CC(=O)N(c2ccc3c(c2)OCCO3)C1)C(=O)NC1CCCC1 (stereo not given in full)	-5	6	17%	5	-1.4%	-7.0	.
CCCC(=O)C1=C(c2ccccc2)C(C#N)(C#N)C(C#N)=C1N	13	-13	28µM*	-3	1.4%	0.3	-12
O=C(CSc1nnc(NC(=O)c2ccco2)s1)Nc1ccccc1Br	-8	-10	1%	10	2.3%	2.0	1
CCc1nnc(N/N=C/c2c(Cl)cccc2Cl)n1N	1	2	-17%	3	-1.5%[38.3 µM]	3.9	-5
Cc1ccc2nc(-c3ccccc3)cc(C(=O)NCCCn3ccnc3)c2c1	-31	-6	3%	-14	-0.1%	-2.4	-9
Cc1c(C(=O)N2CCCCC2)sc(N)c1C#N	-1	-6	0%	20	1.8%	-3.2	-2
COc1ccc(CNCc2ccco2)cc1OCc1ccccc1	-28	-9	?	-18	-2.6%[38.3 µM]	-4.9	-5
CSc1nc(-c2ccccc2)ccc1C(N)=O	-10	0	-29%	10	-4.1%[38.3 µM]	-0.2	9
CC1Cc2ccccc2N1C(=O)COC(=O)c1ccc(Cl)nc1 (stereo not given)	-1	1	14%	11	1.5%	4.1	1
Cc1ccsc1/C=N/Nc1ccc(Cl)nn1	-5	-13	-5%	20	15%	1.5	1
CN(c1ccccc1)S(=O)(=O)c1ccc(C(=O)NCc2ccc(F)cc2)cc1	-2	4	.	.	-0.4%	3.0	11
Cc1cc(=O)oc2cc(OCC3CC(c4ccc(N(C)C)cc4)=NO3)ccc12 (stereo not given)	15	-14	9%	10	?	-2.6	-8
COCCNC(=S)N1CCN(S(=O)(=O)c2ccc(Cl)s2)CC1	-20	4	15%	-5	-1.6%	0.2	5
CCCn1c(=N)n(CC(=O)c2ccc(Cl)c(Cl)c2)c2ccccc21	-17	70	?	15	-3.3%	-0.7	25
FC(F)(F)c1ccc(N=Cc2sc(N3CCOCC3)nc2-c2ccccc2)cc1	6	9	4%	2	1.1%	7.3	6
O=C(N1CCN(Cc2ccccc2)CC1)C(Cl)(Cl)Cl	16	8	4%	-6	3.9%	9.8	25
CC1CN(C2CCN(S(=O)(=O)c3ccc(F)cc3)CC2)CC(C)O1 (stereo not given)	-11	23	-5%	2	1.1%	-2.2	0
Cc1c(/C(O)=C2\C(=O)C(=O)N(CCN(C)C)C2c2cccnc2)cnn1-c1ccccc1 (stereo not given)	-22	0	9%	28	-2.9%	-2.9	-1
CC1(NC(=O)Nc2cccc3ccccc23)CCS(=O)(=O)C1 (stereo not given)	-4	-8	8%	-9	1.7%	2.1	-4
CCC(C)(C)n1nnnc1C(c1ccccn1)N1CCN(c2cccc(OC)c2)CC1 (stereo not given)	-18	3	13%	-25	0.7%	2.5	-3
COC(=O)C(CC(C)C)NC(=O)/C=C/c1ccc(Cl)cc1 (stereo not given)	-6	-7	8%	-7	5.5%	-0.7	19
COc1cc2[nH]c(=O)n(CCC(=O)NC3CCN(Cc4ccccc4)CC3)c(=O)c2cc1OC	-5	-3	-21%	-21	-6.1%	-4.2	2

Six1-Eya2 blk: hit marks shown above
molecule	D2 PAM	Six1-Eya2 blk	Sfp PPTase inh	PINK1 expr mod	D2 agonist	CtBP-E1A blk
CC(C)C(=O)NC(c1cccs1)c1cc([N+](=O)[O-])c2cccnc2c1O (stereo not given)	-16	-97*	?	-2.6%	0.1	-91*

(list continues)
Molecule	D2 PAM	Six1-Eya2 blk	Sfp PPTase inh	TRPV1 PAM	PINK1 expr mod	D2 agonist	CtBP-E1A blk
Cc1ccc(S(=O)(=O)N(Cc2cc3ccccc3[nH]c2=O)c2cccc(C)c2)cc1	-6	4	10%	-5	6.7%	-0.3	-4
CCOC(=O)CSc1cc(=O)n(C)c2cc(Cl)ccc12	-10	24	10%	-4	5.9%	-3.7	0
CN(C)c1ccc(-c2cccc(C3CC=CC4C3C(=O)N(Cc3ccccc3)C4c3ccc(C(F)(F)F)cc3)c2)cc1 (stereo not given)	-12	?	-1%&4%	-10	10%	0.6	-17
COc1ccc(CCNC(=O)C2CCCN2C(=O)Nc2ccc(Cl)cc2)cc1OC (stereo not given)	-3	-1	15%	0	-1.1%	-4.8	-6
